# Rango-impB inh – prevents formation of the Rango-importin beta complex; Potency, µM (series often up to 92.2 µM), for inactives: top-dose inhibition of complex formation; hit rate 0.031% among 340,000; Q14974; AID 540263; Rango CFP/YFP FRET sensor + importin beta, 45 min; active = rising FRET ratio curve, often small or poorly fitted; inconclusive = mostly compound fluorescence or quenching in the first reads; inactive = flat curves in all reads;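 note: potency is the fitted concentration of half-maximal effect; 0% = DMSO wells and 100% = buffer wells lacking importin beta; nearly all actives have a fitted effect of over 15% in size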
# Target sequence (Q14974 whole entry, looked up): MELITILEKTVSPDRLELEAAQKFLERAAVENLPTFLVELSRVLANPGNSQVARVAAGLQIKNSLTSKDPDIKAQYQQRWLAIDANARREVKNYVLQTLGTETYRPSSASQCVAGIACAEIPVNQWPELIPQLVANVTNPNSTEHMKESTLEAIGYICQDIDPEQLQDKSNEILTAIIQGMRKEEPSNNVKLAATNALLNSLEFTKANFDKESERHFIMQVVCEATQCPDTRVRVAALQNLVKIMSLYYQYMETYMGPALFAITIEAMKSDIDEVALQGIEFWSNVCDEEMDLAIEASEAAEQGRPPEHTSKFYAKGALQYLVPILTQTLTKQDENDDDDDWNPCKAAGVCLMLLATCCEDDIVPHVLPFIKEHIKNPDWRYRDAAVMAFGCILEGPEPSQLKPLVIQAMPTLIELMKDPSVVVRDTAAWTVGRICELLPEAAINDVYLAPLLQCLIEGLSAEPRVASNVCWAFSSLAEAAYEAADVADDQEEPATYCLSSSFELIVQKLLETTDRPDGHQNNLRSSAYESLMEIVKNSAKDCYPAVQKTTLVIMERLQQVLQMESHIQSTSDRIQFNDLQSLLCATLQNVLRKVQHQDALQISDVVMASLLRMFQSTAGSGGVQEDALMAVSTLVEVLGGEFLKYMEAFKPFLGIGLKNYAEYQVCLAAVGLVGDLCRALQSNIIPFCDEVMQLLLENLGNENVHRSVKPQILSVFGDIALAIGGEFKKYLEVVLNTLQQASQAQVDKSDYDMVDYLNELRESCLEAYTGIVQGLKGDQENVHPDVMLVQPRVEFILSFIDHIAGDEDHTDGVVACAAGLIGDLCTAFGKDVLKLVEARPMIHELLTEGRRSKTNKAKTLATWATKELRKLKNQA
#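 FRET biosensor Rango (snurportin 1 IBB between N-terminal EYFP and C-terminal Cerulean), 50 nM in PBS/1 mM DTT/0.02% Tween-20/0.1% BSA, preincubated 5 min RT with compound; 0.125 microM importin beta added, 45 min RT, CFP/YFP FRET ratio read.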
# GLA inh pH 4.5 – blocks human alpha-galactosidase A at pH 4.5 | purified enzyme, 4-MU-alpha-Gal fluorescence, pH 4.5 | activity change, negative = inhibition, % at 105 µM | 230,000 tested, under 10 active | AID 1467; inconclusive = small, poorly fitted or top-dose-only inhibition, or a rising curve; inactive = flat fitted curve, though single readings scatter; no compound was filed as active;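 note: 0% = full activity with enzyme and -100% = basal without enzyme; dose as in the result columns while the protocol names 77 µM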
# miR-21 reporter – miR-21 reporter, rising signal. Potency, µM (highest dose often 38.3 µM), without a hit: top-dose reporter change, positive = more light. AID 2288. HeLa miR-21 FLuc reporter, luciferase, 48 h. 340,000 tested, under 10 active; active = well fitted rising curve with a large enough effect; inconclusive = small, poorly fitted or top-dose-only effect; inactive = no such curve, though single readings can be large or run the other way;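 note: % of control where 0% means no effect; miR-21 action dims this reporter so a rising signal means less miR-21 action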
#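 HeLa cells stably expressing CMV-driven firefly luciferase with a downstream miR-21 binding sequence, endogenously expressing miR-21, were treated with titrations (up to about 40uM final) for 48 hours at 37 degree Celsius. Luciferase luminescence was read after lysis.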
# Rango release inh – inhibition of RanGTP-driven Rango-importin beta dissociation | O95149+P62826 | Potency, µM (top dose mostly 46.1 µM), without a hit: at the top dose activity change, negative = inhibition | hit rate 0.071% among 340,000 | AID 540253 | Biochemical FRET Rango-importin beta, RanGTP-induced dissociation; active means falling FRET ratio curve, often poorly fitted, with flat reads before Ran was added; inconclusive means other falling curves, or compound fluorescence or quenching; inactive means flat or rising ratio curve;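 note: potency is the fitted concentration of half-maximal effect; % of control where 0% means no effect; nearly all actives have a fitted effect of over 45% in size; -100% = wells without RanGTP and RCC1; the record marks most hits as doubtful in a second field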
#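 FRET read at 45 min, room temperature: inhibitors block the CFP/YFP signal rise when RanGTP (0.6 uM Ran, 2 mM GTP, 0.2 uM RCC1) frees Rango (0.1 uM) from importin beta (0.25 uM). Pre-read after 5 min compound exposure flags interference.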
# Numbers without * were called inactive; ? = inconclusive; / = no result given.
# Letter code: A = Rango-impB inh; B = GLA inh pH 4.5; C = miR-21 reporter; D = Rango release inh
> Cc1nc(N2CCN(C)CC2)c2sc(=S)n(C)c2n1
  A = 0.0%; B = 4.5; C = -4.2%; D = -14.2%

> O=C(O)Cc1coc(-c2ccc(F)cc2)n1
  A = -1.8%; B = 0.7; C = -2.7%; D = 13.4%

> CN(C1CCCCC1)S(=O)(=O)c1cccc(C#N)c1
  A = -0.4%; B = -2.2; C = -5.1%; D = 1.4%

> CSC1=NC(C)(C)C=C(/C=C/c2c(Cl)cccc2Cl)N1
  A = -0.5%; B = 1.4; C = 18.7%; D = -11.7%

> Cc1onc(NC(=O)NC(=O)c2c(F)cccc2Cl)c1Br
  A = -2.8%; B = /; C = -14.1%; D = -8.5%

> OCCN1CCN(C(=S)NCCc2ccccc2)CC1
  A = 5.4%; B = -3.9; C = -32.7%; D = -5.5%

> OC[C@@H](O)[C@@H](O[C@@H]1O[C@H](CO)[C@H](O)[C@H](O)[C@H]1O)[C@H](O)[C@@H](O)CO
  A = 4.9%; B = /; C = /; D = -8.4%

> CCCCn1c(N)c(N(CCOC)C(=O)CSc2nnc(-c3ccc(C(C)(C)C)cc3)n2N)c(=O)[nH]c1=O
  A = 4.8%; B = /; C = /; D = 11.0%

> Cc1ccc(C)c(/C=C/C(=O)c2ccccc(=O)c2O)c1
  A = ?; B = 9.0; C = ?; D = ?

> N#Cc1cc2c(nc1SCC(=O)Nc1sc3c(c1C#N)CCC3)CCC2
  A = ?; B = 0.4; C = -30.1%; D = ?

> COC(=O)c1c(-c2cccc3ccccc23)csc1NC(=O)Cc1ccc(OC)c(OC)c1
  A = -2.7%; B = -1.4; C = ?; D = 7.3%

> CC(=O)Nc1ccc(S(=O)(=O)N2CCN(C34CC5CC(CC(C5)C3)C4)CC2)cc1
  A = 6.4%; B = 5.1; C = 2.6%; D = -14.4%

> CC(/C=N\N1CCN(Cc2ccc(C)cc2)CC1)=C\c1ccccc1
  A = -2.5%; B = 4.1; C = -0.5%; D = 12.0%

> Cc1oc(-c2ccccc2)cc1C(=O)Nc1cccc(C(=O)O)c1
  A = 0.8%; B = 2.6; C = -13.2%; D = -10.7%

> Cc1ccc(NC(=O)C2CCN(C(=O)c3ccc(Cl)cc3)CC2)nc1
  A = 3.9%; B = /; C = /; D = -3.4%

> c1ccc(OCc2nn3c(Cn4nnc5ccccc54)nnc3s2)cc1
  A = 1.1%; B = -3.9; C = -14.1%; D = 5.5%

> COc1cccc(CN2CCN(C(=O)c3ccco3)CC2)c1OC
  A = -0.7%; B = /; C = /; D = -5.6%

> O=C(c1ccc(F)cc1)c1ccc(CN2C(=O)c3ccccc3C2=O)o1
  A = -2.0%; B = 5.2; C = 0.8%; D = 0.4%

> CC(NC(=O)Cc1ccc(S(=O)(=O)N2CCCCC2)cc1)c1ccccc1 (configuration not stated)
  A = -5.4%; B = /; C = /; D = 0.2%

> Cc1cccn2cc(-c3cccc(S(=O)(=O)N4CCCCC4)c3)nc12
  A = 0.2%; B = /; C = 3.8%; D = -1.7%

> CC(OC(=O)c1cc(S(=O)(=O)N2CCOCC2)ccc1F)C(=O)NCc1ccc2c(c1)OCO2 (configuration not stated)
  A = 0.6%; B = /; C = /; D = -12.4%

> O=C(NN1C(=O)C2C3CCC(O3)C2C1=O)c1ccc(Cl)cc1 (configuration not stated)
  A = -1.0%; B = -11.9; C = -20.8%; D = -9.9%

> CCN(CC)c1ccc(CC(=O)NC(C)Cc2ccccc2)cc1 (configuration not stated)
  A = -2.4%; B = 3.7; C = -5.3%; D = 3.0%

> O=c1c(Cc2ccc(Cl)cc2)c(O)ccn1Cc1ccncc1
  A = -1.1%; B = -0.3; C = -3.5%; D = -1.8%

> Cc1cc2c(cc1S(=O)(=O)N1CCN(c3ccc(Cl)cc3)CC1)OCCN2C
  A = 1.8%; B = /; C = -3.5%; D = 1.6%

> Cc1c(C(=O)OCC(=O)N2CCCC2)cccc1[N+](=O)[O-]
  A = 1.5%; B = /; C = -25.0%; D = -7.7%

> CCOc1ccccc1CN1CCN(Cc2ccc(C)o2)CC1CCO (configuration not stated)
  A = 2.0%; B = -1.6; C = -1.5%; D = -6.0%

> CCC(CC)NC(=O)C1CCN(S(=O)(=O)c2cccs2)CC1
  A = 2.1%; B = 0.6; C = -1.3%; D = 8.2%

> Cc1ccccc1-n1cc(CNC(=O)CCc2nnc(CCc3ccccc3)o2)cn1
  A = -1.4%; B = 2.8; C = -4.9%; D = 0.5%

> Cc1nc(C(F)(F)F)c(C(=O)N/N=C(\N)c2cccnc2)s1
  A = 2.0%; B = -20.3; C = 1.3%; D = 8.6%

> Cc1nc(Cc2ccc(OC(C)C)cc2)[nH]c(=O)c1CC(=O)O
  A = -1.9%; B = 1.3; C = -1.2%; D = -4.9%

> CCc1nc(SCc2ccc(C(=O)OC)o2)c2c(=O)n(C)c(=O)n(C)c2n1
  A = -0.3%; B = -8.8; C = -3.4%; D = -4.7%

> CN1CCN(CC(=O)N2N=C(c3cccs3)CC2c2ccco2)CC1 (configuration not stated)
  A = 0.2%; B = 8.3; C = -14.5%; D = -3.9%

> CCn1nnc2cc(C(=O)N3CCC(C(=O)OC)CC3)ccc21
  A = 0.6%; B = /; C = /; D = -0.5%

> CCN(CC)C(=O)c1sc(N2C(=O)Nc3ccccc3N2O)c(C(=O)OC)c1C
  A = -0.9%; B = -2.4; C = 2.1%; D = -1.0%

> Cc1ccc(Nc2nc(NCC3CCCO3)nc(N)c2[N+](=O)[O-])cc1C (configuration not stated)
  A = -1.8%; B = -0.7; C = -11.1%; D = -0.1%

> COc1cccc(C(C)NC(=O)C2CCCC2)c1 (configuration not stated)
  A = -3.6%; B = /; C = -0.6%; D = 10.1%

> CC(NC(=O)C1CC2CCCC(C1)C2=O)c1ccccc1 (configuration not stated)
  A = 2.5%; B = -0.1; C = 1.2%; D = 1.9%

> C/C(Cl)=C\Cn1c(O)c(N=NC(N)=S)c2cc(Br)ccc21
  A = 3.3%; B = 1.6; C = 20.5%; D = -2.4%

> COCC(=O)OCC(=O)c1cc(C)n(-c2ccc(Br)cc2)c1C
  A = 2.0%; B = -5.4; C = -3.6%; D = 9.2%

> Cc1cc(C)n2c(SCc3ccccc3Cl)nnc2n1
  A = -2.6%; B = 0.2; C = -57.6%; D = 24.3%

> CCc1ccccc1NC(=S)N1N=CCC1c1ccccc1 (configuration not stated)
  A = -2.1%; B = 6.4; C = -26.7%; D = -3.8%

> C=CCSc1ncccc1C(=O)NCc1ccc(C)cc1
  A = -1.8%; B = 6.4; C = -13.1%; D = -5.2%

> O=C(NCC1(N2CCCCC2)CCCCC1)c1cccc(NS(=O)(=O)c2ccccc2)c1
  A = -5.3%; B = /; C = /; D = 26.8%

> Cc1occc1-c1nnc(SCC(=O)NCCc2ccccc2)n1Cc1ccccc1
  A = -0.1%; B = -7.4; C = 3.5%; D = 1.0%

> O=C(NCc1ccc(Cl)cc1)c1cc2ccccn2n1
  A = -0.7%; B = 1.4; C = -30.1%; D = 0.3%

> COc1cc(CN2CCNC(=O)C2CC(=O)N2CCc3ccccc3C2)cc(OC)c1 (configuration not stated)
  A = -3.8%; B = -4.3; C = -0.9%; D = -11.4%

> CN1CCN(c2ccccc2NC(=O)c2ccccc2F)CC1
  A = -3.5%; B = 6.9; C = 2.5%; D = 13.8%

> O=C1Cn2c(nc3ccccc32)-c2ccccc2N1
  A = 1.5%; B = -11.2; C = -9.4%; D = 21.2%

> COc1ccc(N(C)S(=O)(=O)c2cccc(C(=O)Nc3ccc(-n4cnnn4)cc3)c2)cc1
  A = 0.4%; B = -4.3; C = ?; D = -1.7%

> CCN(C(=O)Cc1ccc(Br)cc1)C1CCCCC1
  A = 1.5%; B = -22.7; C = -10.8%; D = -29.4%

> CCCc1cc(=O)oc2cc(C)cc(OCC(=O)Nc3ccc(S(N)(=O)=O)cc3)c12
  A = 2.5%; B = /; C = -0.8%; D = 6.6%

> CCC(CC)c1nnc(NC(=O)c2cc(C(=O)OC)cc([N+](=O)[O-])c2)s1
  A = 1.7%; B = -0.8; C = 0.1%; D = 1.3%

> CCCNC(=S)N1CCC(C(=O)c2ccc(OC)cc2)CC1
  A = -1.3%; B = 6.1; C = -2.2%; D = 21.5%

> N#C/C(=C\c1ccccc1)C(=O)NC1CC1
  A = 0.8%; B = /; C = 2.4%; D = 2.9%

> CC(=O)Nc1ccc(S(=O)(=O)N2CCC(c3nc4c(nnn4Cc4ccccc4Cl)c(=O)[nH]3)CC2)cc1
  A = 3.5%; B = /; C = 0.9%; D = 42.2%

> COc1ccccc1NC(=O)C(C)N(C)CC(=O)Nc1cccc2ccccc12 (configuration not stated)
  A = -0.5%; B = /; C = /; D = -7.1%

> CCCCOc1ccc(N2C(=O)CC(NCCc3ccc(S(N)(=O)=O)cc3)C2=O)cc1 (configuration not stated)
  A = 2.0%; B = 10.9; C = 0.5%; D = -1.1%

> CCOc1ccc(N(CC(=O)NC(C(C)C)C(C)C)S(=O)(=O)c2ccc(OC)c(OC)c2)cc1
  A = 1.7%; B = 0.0; C = 0.4%; D = 17.2%

> CN(Cc1c(F)cccc1Cl)C(=O)C1=CC=CN2CCS(=O)(=O)N=C12
  A = 0.0%; B = /; C = /; D = 27.6%

# More results follow:
# Letter code: A = Rango-impB inh; B = GLA inh pH 4.5; C = miR-21 reporter; D = Rango release inh
> CC(C)NC(=O)C1CCN(C2CCN(Cc3cn[nH]c3-c3ccccc3)CC2)CC1
  A = -0.9%; B = -2.7; C = 3.1%; D = 4.0%

> Cc1onc(-c2ccccc2Cl)c1C(=O)NCc1cccs1
  A = -2.9%; B = -4.5; C = -2.2%; D = -14.2%

> COC(=O)C1=C(C)N(C)C(=O)/C1=C\c1ccco1
  A = -1.0%; B = -1.5; C = 4.2%; D = 4.7%

> CCOc1ccc(N2C(=O)C3Sc4[nH]c(=O)sc4C(c4ccc(OC)c(OC)c4)C3C2=O)cc1 (configuration not stated)
  A = 0.4%; B = 6.3; C = -4.2%; D = -16.5%

> Nc1nc(-c2ccc(-c3ccccc3)cc2)cs1
  A = 0.5%; B = -0.9; C = -53.0%; D = 2.8%

> O=S(=O)(Cc1ccc(Cl)cc1)Nc1ccc2c(c1)OCO2
  A = -0.8%; B = -21.3; C = -4.6%; D = -9.7%

> CN1CCC(N(C)S(=O)(=O)c2ccc(NC(=O)COc3ccc(F)cc3)cc2)CC1
  A = 4.6%; B = /; C = /; D = -4.6%

> N#C/C(=C/c1ccc(C(=O)O)cc1)C(=O)NCc1ccccc1
  A = -0.4%; B = -7.0; C = -2.9%; D = ?

> Cc1ccccc1Cn1c(=O)n(CCCC(=O)NCc2ccco2)c(=O)c2ccccc21
  A = ?; B = -23.0; C = -12.8%; D = -3.7%

> O=[N+]([O-])c1ccc([C@H](O)[C@H](CO)N=Cc2ccccc2O)cc1
  A = 0.0%; B = -2.9; C = -4.5%; D = 1.4%

> CCOc1ccc(C(=O)Nc2ccc(C(F)(F)F)n(C)c2=O)cc1
  A = -0.4%; B = 2.2; C = -13.5%; D = -16.7%

> CC(C)CNC(=O)c1cc2nc3c(c(C(F)(F)F)n2n1)CCc1ccccc1-3
  A = -4.5%; B = -1.2; C = -6.4%; D = -13.6%

# Not a retest: 2 of the compounds above.
# Letter code: A = Rango-impB inh; B = GLA inh pH 4.5; C = miR-21 reporter; D = Rango release inh
> CC(C)NC(=O)C1CCN(C2CCN(Cc3cn[nH]c3-c3ccccc3)CC2)CC1
  A = -0.9%; B = -2.7; C = 3.1%; D = 4.0%

> Cc1onc(-c2ccccc2Cl)c1C(=O)NCc1cccs1
  A = -2.9%; B = -4.5; C = -2.2%; D = -14.2%

# 3 of the entries above in order of the Rango release inh value, lowest first:
Compound | Rango-impB inh | GLA inh pH 4.5 | miR-21 reporter | Rango release inh
Cc1cccn2cc(-c3cccc(S(=O)(=O)N4CCCCC4)c3)nc12 | 0.2% | / | 3.8% | -1.7%
CCN(CC)c1ccc(CC(=O)NC(C)Cc2ccccc2)cc1 (configuration not stated) | -2.4% | 3.7 | -5.3% | 3.0%
CCCNC(=S)N1CCC(C(=O)c2ccc(OC)cc2)CC1 | -1.3% | 6.1 | -2.2% | 21.5%

# Bioassay records as filed in PubChem BioAssay.

# Not all compounds are listed, so the mix of outcomes need not match the whole.
